CtBP-E1A inh: CtBP/E1A binding inhibition; 0.49% of 340,000 active; activity change, % (no concentration beside the values); AlphaScreen GST-E1A/His-CtBP binding, 1536-well; stronger effect = lower value; control for the full effect not named in the record; in the data active means activity change below about -65%; inconclusive means about -30% to -65%; inactive means above about -30%; also: % is scaled to controls: 0 for no effect and ±100 for the full control effect; compound concentration not given in the record
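Steps: dispense buffer (Tris pH 8.0, NaCl 300 mM, TCEP 1 mM, BSA, Tween 20); add 5X protein mix (GST-E1A, His-CtBP, 125 nM each); pin 23 nL compound; 2 h at 37 °C, dark; add 5X beads (50 ug/mL); 1 h; read.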
Six1-Eya2 inh: Six1/Eya2 interaction inhibition; AID 651725; AlphaScreen GST-Six1/His-Eya2 binding, biochemical; stronger effect = lower value; control for the full effect not named in the record; Q15475+O00167; activity change, % (concentration not given with the values); 0.56% of 360,000 active; in the data active = activity change below about -65%; inconclusive = about -30% to -65%; inactive = above about -30%; also: % is scaled to controls: 0 for no effect and ±100 for the full control effect
Target sequence (O00167 whole entry, looked up): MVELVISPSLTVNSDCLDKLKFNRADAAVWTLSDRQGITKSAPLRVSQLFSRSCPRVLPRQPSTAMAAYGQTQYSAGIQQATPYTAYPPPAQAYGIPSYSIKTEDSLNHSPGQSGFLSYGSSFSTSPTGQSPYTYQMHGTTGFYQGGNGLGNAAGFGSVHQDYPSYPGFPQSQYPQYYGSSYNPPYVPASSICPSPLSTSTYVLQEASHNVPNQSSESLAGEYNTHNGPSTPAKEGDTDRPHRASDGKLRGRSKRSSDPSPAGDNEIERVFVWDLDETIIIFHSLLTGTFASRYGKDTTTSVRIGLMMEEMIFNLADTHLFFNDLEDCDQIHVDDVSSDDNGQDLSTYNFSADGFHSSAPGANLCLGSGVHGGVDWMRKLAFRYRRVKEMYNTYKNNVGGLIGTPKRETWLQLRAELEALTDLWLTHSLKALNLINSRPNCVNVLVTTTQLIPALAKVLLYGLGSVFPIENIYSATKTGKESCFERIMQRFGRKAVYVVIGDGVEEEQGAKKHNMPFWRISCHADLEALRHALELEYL
Target sequence (Q15475 whole entry, looked up): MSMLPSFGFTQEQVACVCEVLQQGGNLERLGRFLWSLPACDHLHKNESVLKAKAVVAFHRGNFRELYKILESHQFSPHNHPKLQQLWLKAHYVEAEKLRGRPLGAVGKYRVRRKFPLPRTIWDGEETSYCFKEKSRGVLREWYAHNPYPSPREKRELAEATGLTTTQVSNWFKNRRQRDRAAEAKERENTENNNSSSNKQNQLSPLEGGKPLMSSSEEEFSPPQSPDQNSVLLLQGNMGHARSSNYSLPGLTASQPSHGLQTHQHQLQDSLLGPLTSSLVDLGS
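AlphaScreen luminescence read after one hour at 37 °C in darkness. Pin-transferred compounds met GST-Six1 and His-Eya2 protein (5X stock 250 nM/500 nM) plus glutathione donor and Ni-chelate acceptor beads (5X, 50 ug/mL).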
TRPML1 inh: blocks the human TRPML1 channel; activity change, negative = inhibition, % (test concentration not listed); TRPML1-inducible cells, Ca2+ dye fluorescence, FDSS; stronger effect = lower value; inhibition of EC80 agonist-evoked calcium signal; Q9GZU1; 0.02% of 390,000 active; AID 624415; in the data active means activity change below about -50%; inconclusive means about -30% to -50%; inactive means above about -30%;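 also: stimulus is agonist 54-4 at its EC80 concentration; % is scaled to controls: 0 for no effect and ±100 for the full control effect; compound concentration not given in the record; the text of the record puts the active cut at -80%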
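Calcium fluorescence in TRPML1-DL cells induced overnight with Tet: a 110 s read after compound pin addition, then a 110 s antagonist read after challenge with 54-4 at 4 uM final (EC80).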
TRPV1 PAM: enhances activation of the human vanilloid receptor TRPV1; Q8NER1; TRPV1-expressing cells, Fluo-8 calcium influx, capsaicin EC20 potentiation; host cell line not named in the record; control for the full effect not named in the record; potentiation, % at 8.33 µM; 0.02% of 320,000 active; AID 540277; active means potentiation above 80%; inconclusive means 30% to 80%; inactive means below 30%; also: 0% is about no effect
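TRPV1-expressing cells were cultured overnight at 35.5C and loaded with Fluo-8 calcium dye for 40 to 90 min at room temperature. After a 10 s baseline, compound was added and calcium influx was read kinetically for 3 min (ex 480/em 520 nm).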
TRPML1 ag: human mucolipin-1 channel agonism | Q9GZU1 | activation, % (no concentration beside the values) | TRPML1-expressing cells, Ca2+ dye fluorescence, FDSS; host cell line not named in the record; reference of the full effect not given here | 0.12% of 410,000 active; in the data active = activation above about 50%; inconclusive = about 30% to 50%; inactive = below about 30%; also: 0% is about no effect; the text of the record puts the active cut at 80%
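Kinetic FDSS Ca2+ read in Tet-induced TRPML1-DL cells (ABD Ca8 dye plus quencher, 45-90 min RT loading): baseline, then compound, then 110 s agonist window; EC80 agonist 54-4 at 4uM final added afterwards for a 110 s antagonist window.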
D2 PAM: positive allosteric modulators of human D2 dopamine receptor | DiscoveRx D2 beta-arrestin cells, luminescence, 90 min; 100% = 57 uM dopamine signal | 0.23% of 360,000 active | potentiation, % (test concentration not listed) | P14416; active = potentiation of 50% or more; inconclusive = 30% to 50%; inactive = 30% or less;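 also: compound concentration not given in the record; tested on top of an EC20 dose of dopamine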
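D2 cells co-treated with compound plus 50 nM dopamine (EC20) for 90 min at 37 deg C to detect potentiation. Beta-arrestin recruitment was read as enzyme-fragment luminescence after 1 h at ambient temperature. Full response was set by 57 uM dopamine.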
* hit, by the source's call; ? = inconclusive; / = no result given; & = joins results of further samples. This is a random part of the collection. About 0.95% of those tested had a hit in this group.

SMILES	CtBP-E1A inh	Six1-Eya2 inh	TRPML1 inh	TRPV1 PAM	TRPML1 ag	D2 PAM
CSCCC(Nc1ncnc2ccc(Br)cc12)C(=O)O (centres undefined)	3	-7	0	21	-0.5	2
O=C(NC1CCCCC1)C1c2ccccc2OCC(=O)N1Cc1ccccn1 (centres undefined)	-1	-2	/	/	-0.3	/
Cn1c(=O)cc(OCCCC(=O)Nc2cccc(Cl)c2)c2ccccc21	-4	-12	/	/	-0.9	-7
Cc1cc(=O)n2[nH]c(C(F)(F)F)c(-c3ccccc3)c2n1	/	6	-6	18	4.3	-6
CCN(CC)C(=O)COc1ccc(CC(=O)O)cc1OC	4	4	1	-38	0.7	-8
CCOC(=O)N1CCN(c2nnc(-c3ccccc3)c3ccccc23)CC1	-17	-5	-9	-14	2.9	-4
CC1=NN(C(=O)CCc2ccccc2)C(O)(c2ccncc2)C1 (centres undefined)	-18	4	14	-9	1.0	-9
CCn1c(SCC(=O)NC2CC2)nnc1C(C)Oc1ccccc1 (centres undefined)	-21	23	-8	4	0.2	-13
CCCNc1c(NS(=O)(=O)c2ccc(NC(=O)CC)cc2)c(=O)oc2ccccc12	2	2	10	-6	-0.1	10
Cc1sc(NC(=O)c2ccco2)c(CN2CCN(c3ccccn3)CC2)c1C	-11	-20	22	-9	0.4	19
Cc1cc(C)nc(SCC(=O)N/N=C/c2cccn2-c2cccc(C(F)(F)F)c2)n1	-15	-10	-14	15	1.6	8
Cc1c(C(=O)NCc2ccc3c(c2)OCO3)oc2ccc(S(=O)(=O)N3CCCC3)cc12	-6	-6	14	29	1.1	11
O=C(CN1CCCCCCC1)N/N=C/c1ccc(F)cc1F	9	0	0	-12	4.1	6
CC(C)C(=O)Nc1ccc(-c2nc3cccnc3o2)cc1	-16	-15	-4	2	-0.7	-7
Cc1ccccc1NS(=O)(=O)c1nnc(NC(=O)c2ccccc2C)s1	-1	-3	-2&14	5	-0.5&-0.6	0
CCCCC(=O)NC(=S)Nc1c(C)cc(Br)cc1C	/	4	1	-3	-0.1	-8
COc1cnc(-c2ccccn2)nc1Sc1ccc(F)cc1	-72*	?	10	-8	3.2	-2
CC1CCCN(S(=O)(=O)c2ccc(S(=O)(=O)N3CCCN(Cc4ccccc4)C3)cc2)C1 (centres undefined)	7	-1	-13	15	0.0	-3
COc1ccc(C2=NOC(Cn3c(Cc4ccc(Cl)cc4)nc4c3c(=O)n(C)c(=O)n4C)C2)cc1 (centres undefined)	0	3	33	6	-0.4	-10
CC(C)n1c(NCc2ccccc2O)nc2ccccc21	-1	-2	-1	3	-0.8	-6
CCn1nc(C(=O)NCC(c2cccs2)N2CCOCC2)c2ccccc2c1=O (centres undefined)	0	9	7	0	0.4	-30
Cc1cc(C)nc(N/N=C/c2cccc([N+](=O)[O-])c2)n1	4	8	6	-18	-0.4	-3
CC(=O)C1=CCC(c2ccc(C)cc2)N(S(=O)(=O)c2ccc(C)cc2)C1 (centres undefined)	2	6	/	/	1.5	-12
CCN(CC(=O)Nc1ccccc1C(F)(F)F)C(=O)c1oc2ccc(OC)cc2c1C	-1	4	-17	3	3.1	-10
COCCN(CCOC)C(=O)COC(=O)c1ccc(Cl)c(S(=O)(=O)N(C)c2ccccc2)c1	-12	-13	-12	0	-0.3	-7
O=C(NCC1CCCO1)c1csc2c1CCCC2 (centres undefined)	9	8	-3	6	-0.3	-2
COc1ccc2cc(CCNC(=O)c3cccc([N+](=O)[O-])c3)c(=O)[nH]c2c1	1	-5	-2	-18	-0.4	1
CCOCCCNc1ncc2c(n1)CC(c1ccc(C)cc1)CC2=O (centres undefined)	-2	11	-16	10	-1.2	-9
CCn1c(Cc2ccccc2)nnc1SCC(=O)Nc1nccs1	-13	-3	-27	4	1.2	-6
COC(=O)c1sc(N2C(=O)c3oc4ccccc4c(=O)c3C2c2cccs2)nc1C (centres undefined)	6	6	-3	2	1.6	-8
CCCCC(=O)N1CCN(c2nc3ccc(OCC)cc3s2)CC1	/	2	12	-9	3.5	-5
O=[N+]([O-])c1cc([N+](=O)[O-])c2cccnc2c1Oc1ccccc1O	?	-65*	25	-4	-1.0	9
O=C(NCCN1CCOCC1)C1CCC(CNS(=O)(=O)c2ccccc2)CC1 (centres undefined)	6	-7	10	-16	0.4	0
Cc1ccc(C(=O)N2CCOCC2)cc1[N+](=O)[O-]	-8	13	-7	9	-0.6	-13
CCN(CC)C(=O)c1sc2nc(-c3ccncc3)[nH]c(=O)c2c1C	5	0	-13	-4	-0.2	-7
CC1=NC(=O)C(N=Nc2ccccc2C(=O)O)N1c1ccccc1 (centres undefined)	-10	-21	19	-2	0.5	14
CC1=NNC(=O)C1CCC(=O)N/N=C\c1ccccc1[N+](=O)[O-] (centres undefined)	4	0	-1	-1	1.9	-3
C/C(N)=C(/C#N)C(=O)COC(=O)CSc1ccccc1	-8	3	14	-16	2.6	-3
CCOc1ccc(C(=O)OCC(=O)NCc2ccccc2)cc1OCC	5	7	-2	-3	0.3	-8
CC(C)Oc1ccc(C(=O)CCN2CCOCC2)cc1	-4	9	-2	/	1.4	-8
Cc1ccccc1-c1nc(CN2CCSCC2)c(C)o1	0	-5	-13	-12	-0.8	-5
CC(=O)NC1=NC(=O)/C(=C/N2CCCCC2)S1	-3	-1	-11	-6	-0.1	-5
CC(C)C[C@@H](CN1CCCC1CN1C(=S)NC[C@@H]1Cc1ccccc1)N1C[C@H](Cc2ccccc2)N(CC2CCCCC2)C1=S (some centres undefined)	-1	-14	/	/	-0.7	/
CN(C)c1cccc(NC2=CC(=[N+]3CCOCC3)CC(C)(C)C2)c1	-6	-2	6	4	0.5	1
CCCCOC(=O)c1ccc(NC(c2ccc(C)cc2)P(=O)(OC)OC)cc1 (centres undefined)	3	2	35	6	2.5	-5
Nc1ccccc1SCC(=O)Nc1nc(-c2ccccc2)cs1	-18	-21	-3	2	0.2	1
CC1CCN(c2nc3ccc(C(=O)N4CCN(Cc5ccc6c(c5)OCO6)CC4)cc3s2)CC1	-1	-10	-12	6	-0.6	-2
CN(C(=O)COc1ccc2c(-c3ccccc3)cc(=O)oc2c1)C1CCS(=O)(=O)C1 (centres undefined)	0	-1	-2	-10	-0.9	-8
COc1ccc(-n2c(C)cc(C(=O)CSc3nn4c(=O)c(C(C)(C)C)nnc4s3)c2C)cc1	-2	-5	1	7	-0.3	-3
Nc1c(C(=O)N/N=C/c2ccc(Cl)cc2)cnn1-c1ccccc1	-16	4	-9	-9	0.5	1
CC(N)c1csc(Nc2nncc3ccccc23)n1 (centres undefined)	-21	-18	/	/	-0.1	-5
NC(=O)CSc1nnc(-c2cccc(S(=O)(=O)N3CCCCC3)c2)o1	/	-1	-7	-2	-0.5	-10
CC1CC(C)CN(C(=O)CSc2nnc(-c3ccc(Cl)s3)o2)C1 (centres undefined)	30	15	-5	-3	1.8	1
COc1ccccc1NC(=O)Cc1noc(CSc2cccc[n+]2[O-])n1	-3	-3	18	-1	-0.9	-12
O=C(O)CCC(=O)Nc1ccc(N2CCCCC2)c(C(=O)O)c1	5	-1	27	19	-0.3	20
CCOC(=O)C1CCCN(CCC(=O)Nc2ccc(C)cc2)C1 (centres undefined)	5	7	19	-6	-0.8	-33
CC(C)(C)NC(=O)Cn1nnc(-c2cccs2)n1	6	-1	4	3	-0.4	-3
CN(C)CCNC(=O)c1cc2ccccc2oc1=O	3	4	-1	5	-0.6	-1
O=[N+]([O-])c1nn(-c2ccccc2)n(O)c1=NCc1ccc2c(c1)OCO2	6	-8	26	5	0.3	20
CC1=CC2=NC(=O)/C(=C\c3cccn3CCOc3cccc(C)c3)C(=N)N2O1	-19	-18	8	-7	0.1	-10

Seven entries picked at random from those above, as already listed:
SMILES	CtBP-E1A inh	Six1-Eya2 inh	TRPML1 inh	TRPV1 PAM	TRPML1 ag	D2 PAM
CC1CC(C)CN(C(=O)CSc2nnc(-c3ccc(Cl)s3)o2)C1 (centres undefined)	30	15	-5	-3	1.8	1
COc1ccccc1NC(=O)Cc1noc(CSc2cccc[n+]2[O-])n1	-3	-3	18	-1	-0.9	-12
CC(C)(C)NC(=O)Cn1nnc(-c2cccs2)n1	6	-1	4	3	-0.4	-3
NC(=O)CSc1nnc(-c2cccc(S(=O)(=O)N3CCCCC3)c2)o1	/	-1	-7	-2	-0.5	-10
Nc1c(C(=O)N/N=C/c2ccc(Cl)cc2)cnn1-c1ccccc1	-16	4	-9	-9	0.5	1
CCOC(=O)C1CCCN(CCC(=O)Nc2ccc(C)cc2)C1 (centres undefined)	5	7	19	-6	-0.8	-33
CC1=CC2=NC(=O)/C(=C\c3cccn3CCOc3cccc(C)c3)C(=N)N2O1	-19	-18	8	-7	0.1	-10

Going on with the list:
SMILES	CtBP-E1A inh	Six1-Eya2 inh	TRPML1 inh	TRPV1 PAM	TRPML1 ag	D2 PAM
COc1ccccc1-n1c(SCC(=O)N2CCCCC2)nnc1-c1ccccc1O	12	6	8	-18	0.1	1
Cc1csc(NC(=O)c2ccc(Br)s2)n1	-3	-9	8	-6	0.0	-5
CCOc1ccc(NC(=S)NCC(c2cccnc2)N2CCOCC2)cc1 (centres undefined)	11	3	-8	2	5.9	-3
Cc1ccccc1OC(C)C(=O)NCc1cccnc1 (centres undefined)	-2	3	-7	19	-0.1	0
NS(=O)(=O)c1cccc(-n2cnnn2)c1	5	-2	9	-4	1.2	-3
CCn1c(C)nc2cc(C(=O)NNC(=S)NC(=O)c3ccc(OC)cc3)ccc21	-6	-11	6	0	1.6	-10
COCCCNc1nc2ccccc2nc1NS(=O)(=O)c1ccc(C)cc1C	-1	-6	-11	22	1.0	-6
Cc1nc(CNC(=O)CC2C(=O)NCCN2Cc2ccc(F)cc2)cs1 (centres undefined)	9	0	27	9	1.6	-10
O=C(NC1CCCCC1)c1cccs1	-1	4	-1	2	1.8	6
CC1(c2ccccc2Cl)NC(=O)N(CC(=O)N2c3ccccc3NC(=O)C2(C)C)C1=O (centres undefined)	-9	5	-17	-4	0.9	-9
CC(C)n1cc(C#N)c(N)n1	7	-1	27	/	-0.1	-3
Cc1ccc(NC(=O)N2CCOCC2)c(C)c1	3	-2	9	-17	0.1	-15
CCCC1CCC(C(=O)n2nc(N)c3cc4ccc(OC)cc4nc32)CC1 (centres undefined)	6	0	8	6	0.0	-6
COC(=O)C1=NN(C(C)=O)C2(CC(=O)N(c3cccc(C)c3)C2=O)C1 (centres undefined)	5	2	7	-17	-1.1	-8
C=CCNC(=O)/C(C#N)=C/c1c(C)nn(-c2ccccc2)c1Cl	-8	1	-5	-25	0.1	8
O=C1N2CCCc3cccc(c32)C12Nc1ccccc1S2 (centres undefined)	-4	-2	0	-8	1.0	9
CN(C)CCNC(=O)C1(C)Cc2c(-c3cccc(C(F)(F)F)c3)ccnc2O1 (centres undefined)	-19	6	/	/	0.2	-9

In the list so far, 2 have a tert-butyl group:
SMILES	CtBP-E1A inh	Six1-Eya2 inh	TRPML1 inh	TRPV1 PAM	TRPML1 ag	D2 PAM
COc1ccc(-n2c(C)cc(C(=O)CSc3nn4c(=O)c(C(C)(C)C)nnc4s3)c2C)cc1	-2	-5	1	7	-0.3	-3
CC(C)(C)NC(=O)Cn1nnc(-c2cccs2)n1	6	-1	4	3	-0.4	-3
